Screens (PubChem BioAssay)
gsp antag = antagonizes gsp, the McCune-Albright syndrome mutation. gsp-mutant cells, cAMP HTRF, 30 min; control for the full effect not named in the record. Potency, µM (doses to about 76.9 µM), for the others: at the highest dose activity change, negative = inhibition, hits mostly inhibitors. 340,000 compounds, 0.4% hits; active = falling curve of any shape with a large fitted effect; inconclusive = falling curve, mostly with a smaller effect; inactive = flat or rising curve; cell line not stated here;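 note: intracellular cAMP measured with PDE inhibitor Ro 20-1724 present during compound exposure; potency is the fitted concentration of half-maximal effect; % is set by controls: 0 for no effect and ±100 for the full control effect; nearly all actives have a fitted effect of over 65% in size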
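Cells, 2000/well, grown 16–24 h in DMEM 10% FBS with 0.5 mg/ml G418, then compounds plus […] (300 uM addition stock), 30 min at 37C. cAMP read by HTRF (cAMP-d2 and anti-cAMP antibody-K in lysis buffer) after 30 min RT.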
gsp agonist = agonists of gsp mutant (McCune-Albright syndrome); Potency, µM (highest dose often 76.9 µM), for inactives: at the highest dose activation (cAMP increase), usual class: activators; gsp mutant cells, cAMP HTRF, 30 min; control for the full effect not named in the record; 340,000 compounds, 0.13% hits; active = well fitted activation curve with a large enough effect; inconclusive = small, poorly fitted or top-dose-only effect, or another doubt; inactive = no such curve, though single readings can be large or run the other way; cell line not stated here;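 note: phosphodiesterase inhibitor Ro 20-1724 added with compounds to block cAMP breakdown; potency is the fitted concentration of half-maximal effect; nearly all actives have a fitted effect of over 60% in size; about a fifth of the inactives were tested at one dose only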
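Cells stably selected in G418 were plated at 2000/well, grown 16-24 hr, then given compounds in DMSO with the PDE inhibitor […] (300 uM solution added) for 30 min at 37C; cAMP was read by HTRF.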
Sfp inh = blocks B. subtilis Sfp PPTase activity | 310,000 compounds, 3.5% hits | Q9F4F7 | Potency, µM, without a hit: max response, negative = inhibition, most hits filed as inhibitors | Biochemical Sfp PPTase activity, qHTS | AID 1490; active = well fitted inhibition curve with a large enough effect; inconclusive = small, poorly fitted or top-dose-only effect, or another doubt; inactive = no such curve, though single readings can be large or run the other way;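 note: the enzyme is Sfp with the accession as filed and its product quenches rhodamine fluorescence; potency is the fitted concentration of half-maximal effect; 0% = enzyme reaction without inhibitor and -100% = no enzyme wells; top concentration of the series not given in the record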
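Fluorescence-quenching assay: 15 nM Sfp-PPTase preincubated 15 min at room temperature with compound, then 5 uM rhodamine-CoA and 12.5 uM BHQ-2-labelled YbbR peptide added. Fluorescence (ex 525/em 598 nm) read at start and after 30 min; difference gives rate.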
ClpP mod = qHTS Assay for Activators of ClpP | 340,000 compounds, 1.9% hits | AID 651965, 2013 | ATP-dependent Clp protease proteolytic subunit (Bacillus subtilis (strain 168)), P80244 | Potency, µM (top dose mostly 57.5 µM), for inactives: top-dose activity change, negative = active | purified B. subtilis ClpP, FRET peptide cleavage, 20 min; active = well fitted falling curve with a large enough effect; inconclusive = small, poorly fitted or top-dose-only effect; inactive = no such curve, though single readings can be large or run the other way; note: potency is the fitted concentration of half-maximal effect; the source files actives as falling curves though it sought activators and does not explain the sign; nearly all actives have a fitted effect of over 65% in size; many hits overshoot -100%
Target sequence (P80244 whole entry, looked up): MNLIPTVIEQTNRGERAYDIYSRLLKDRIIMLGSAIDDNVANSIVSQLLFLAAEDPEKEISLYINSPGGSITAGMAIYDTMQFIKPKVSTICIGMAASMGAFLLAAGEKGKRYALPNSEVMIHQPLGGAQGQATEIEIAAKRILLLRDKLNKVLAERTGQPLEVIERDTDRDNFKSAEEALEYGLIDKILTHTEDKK
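Buffer: 100 mM Tris/HCl pH8, 100 mM KCl, 0.05% low protease BSA, 2.5% glycerol, 0.01% Tween-20. ClpP 10 microg/mL final; 20 min RT; delta FRET normalized to ADEP and DMSO controls.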
TRPV1 potentiator = human TRPV1 potentiation. TRPV1-expressing cells, Fluo-8 calcium influx, capsaicin EC20 potentiation; host cell line not named in the record; control for the full effect not named in the record. potentiation, % at 8.33 µM. 320,000 compounds, 0.02% hits. AID 540277; active means potentiation above 80%; inconclusive means 30% to 80%; inactive means below 30%; note: 0% is about no effect
Target sequence (Q8NER1 whole entry, looked up): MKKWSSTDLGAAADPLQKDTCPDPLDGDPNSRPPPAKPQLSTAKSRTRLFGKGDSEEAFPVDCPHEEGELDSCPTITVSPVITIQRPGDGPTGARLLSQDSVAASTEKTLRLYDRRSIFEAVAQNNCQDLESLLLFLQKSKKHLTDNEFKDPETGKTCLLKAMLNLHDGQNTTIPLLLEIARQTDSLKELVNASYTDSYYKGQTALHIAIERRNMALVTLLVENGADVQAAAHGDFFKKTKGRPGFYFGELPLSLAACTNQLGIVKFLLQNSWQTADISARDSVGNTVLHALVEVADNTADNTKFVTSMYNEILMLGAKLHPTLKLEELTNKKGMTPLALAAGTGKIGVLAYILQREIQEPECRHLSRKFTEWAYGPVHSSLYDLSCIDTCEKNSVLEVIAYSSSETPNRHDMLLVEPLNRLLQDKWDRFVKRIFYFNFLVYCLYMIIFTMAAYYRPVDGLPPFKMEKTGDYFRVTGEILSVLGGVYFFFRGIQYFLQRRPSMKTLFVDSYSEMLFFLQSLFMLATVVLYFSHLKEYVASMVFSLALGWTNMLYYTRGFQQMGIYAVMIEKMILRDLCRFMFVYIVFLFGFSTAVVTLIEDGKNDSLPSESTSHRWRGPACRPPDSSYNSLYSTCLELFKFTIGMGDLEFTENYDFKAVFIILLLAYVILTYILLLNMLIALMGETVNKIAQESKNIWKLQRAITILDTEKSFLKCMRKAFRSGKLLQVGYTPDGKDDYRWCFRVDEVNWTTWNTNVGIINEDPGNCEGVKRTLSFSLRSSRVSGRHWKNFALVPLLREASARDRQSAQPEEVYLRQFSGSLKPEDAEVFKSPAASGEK
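Fluo-8 calcium influx in TRPV1-expressing cells, kinetic read (ex 480/em 520 nm). Compound added and read 3 min for agonist activity, followed by capsaicin at EC20 final and 2 min further read for enhancement.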
CtBP-E1A inh = inhibitors of CtBP/E1A interaction | AlphaScreen GST-E1A/His-CtBP binding, 1536-well; stronger effect = lower value; control for the full effect not named in the record | activity change, % (no concentration beside the values) | 340,000 compounds, 0.49% hits | AID 651724; in the data active means activity change below about -65%; inconclusive means about -30% to -65%; inactive means above about -30%; note: % is set by controls: 0 for no effect and ±100 for the full control effect
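In 5 uL wells, 23 nL compound meets equimolar GST-E1A and His-CtBP (5X stock 125 nM each) for 2 h, 37 °C. Beads (5X, 50 ug/mL) then 1 h, 37 °C, dark.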
Menin MLL FP FL = inhibitors of human menin-MLL interaction, wild-type MLL peptide. Fluorescence polarization, fluorescein-MLL peptide displacement from menin. 290,000 tested, under 10 active. FP activity change, % at 61.4 µM; inconclusive = falling polarisation curve, or a change in total fluorescence; inactive = total fluorescence flat and polarisation flat or rising; no compound was filed as active; the % refers to the polarisation; negative = inhibition;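 note: % of control where 0% means no effect; inhibitors lower the polarisation; unlabelled MLL peptide was the positive control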
Active calls of the source: *; ? = inconclusive; nt = no result given; & = joins results of further samples; [ ] = remark or other dose. The order is random, and some 5.3% of all compounds hit somewhere here.

Order of values – gsp antag | gsp agonist | Sfp inh | ClpP mod | TRPV1 potentiator | CtBP-E1A inh | Menin MLL FP FL
1	CCOC(=O)c1cnn(-c2ccccc2)c1-n1cccc1C(=O)C(=O)N(C)C
    -7% | -22% | 24% | 1.2% | -8 | 0 | -2.9
2	NC(=O)N/N=C/c1ccc(-c2ccc(S(=O)(=O)Nc3ncccn3)cc2)o1
    -2% | 24% | nt | ? | 12 | -18 | nt
3	CCOc1ccc2c(c1)C(=O)c1cc(OCC(=O)O)ccc1-2
    ? | 2% | 1% | 0.1% | 10 | 1 | 1.3
4	COc1ccccc1OCCNC(=O)c1cc([N+](=O)[O-])cc([N+](=O)[O-])c1
    nt | 13%[15.4 µM] | 17% | nt | 1 | -18 | 2.1
5	Cc1nc2sc3c(c2c(=O)[nH]1)CCC3
    5% | 27% | -1% | -1.0% | -8 | -3 | 2.0
6	Cc1cccc(N2C(=O)CC(N3CCN(c4ccccc4)CC3)C2=O)c1 (stereo not given)
    0% | -14% | 3% | 0.0% | 18 | 40 | 1.3
7	Cc1ccccc1NC(=O)Oc1cccc(OC(=O)c2ccccc2)c1
    -4% | 18% | 12% | 1.2% | 23 | nt | 1.2
8	COc1cccc(-c2sc3ccc(OC)cc3c2-c2ccc(OCCN3CCCC3)cc2)c1
    4% | nt | nt | ? | nt | -20 | nt
9	Cn1c2ccccc2c2ncn(CCCN3CCOCC3)c(=O)c21
    17% | 3% | 15% | 25µM* | -24 | -3 | 3.4
10	CCSC1=NC(=O)/C(=C2/C=Cc3ccccc3N2CC)S1
    -24% | -1% | ? | 1.9% | 7 | -74* | 14
11	O=C(NCc1ccc(Cl)cc1Cl)C1CC(=O)N(Cc2ccccc2)C1 (stereo not given)
    -19% | 36%[15.4 µM] | 24% | -2.2% | -2 | 3 | 2.4
12	COc1ccc(N2CCN(C(CNC(C)=O)c3ccc4c(c3)OCO4)CC2)cc1 (stereo not given)
    1% | 24% | 5% | -13% | 1 | -22 | 2.8
13	O=C(c1cccc(Br)c1)N1CCN(S(=O)(=O)N2CCCCC2)CC1
    -3% | -20% | 25% | -2.4% | 26 | -19 | nt
14	O=C(CCCCn1c(=O)[nH]c2ccccc2c1=O)N1CCN(c2cccc(C(F)(F)F)c2)CC1
    ? | -6% | -5% | -6.1% | 2 | 0 | 4.9
15	Cc1ccc(NC(=O)c2ccc(Oc3ncccn3)cc2)cc1
    3% | ? | 22% | nt | -23 | 8 | -4.5
16	Cc1ccc(C)c(NC(=O)CCC(=O)NNC(=O)COc2cc(C)ccc2C)c1
    4% | 2%[15.4 µM] | 10% | 1.2% | 23 | 10 | nt
17	CCN(CC(=O)Nc1c(F)cccc1F)C(=O)CSCc1c(C)noc1C
    -6% | -31%[inhibitor] | nt | -1.4% | 3 | 11 | nt
18	CCOC(=O)N1CCc2c(sc(NC(=O)CCS(=O)(=O)c3ccccc3)c2C(N)=O)C1
    -8% | 13% | -9% | -7.7% | 2 | 0 | nt
19	O=C(c1ccccc1)N1CCN(Cc2ccc3c(c2)OCO3)CC1
    -15% | 4% | 7% | nt | 9 | -3 | 2.2
20	COc1ccc(S(=O)(=O)N2CCN(Cc3ccccc3OC)CC2)cc1
    nt | 45% | nt | 1.2% | nt | 1 | nt
21	CCc1ccc(CNC(=O)C(=O)NCC2CCCO2)cc1 (stereo not given)
    11% | -24% | 18% | -0.6% | -9 | -1 | 2.7
22	CN1OC[C@@H]2CN(S(=O)(=O)c3ccccc3)[C@H](c3cccc(Br)c3)C[C@@H]21
    0% | nt | nt | 2.3% | nt | -2 | nt
23	O=C(O)CS(=O)(=O)c1ccc(C(F)(F)F)cn1
    11% | -3% | 10% | nt | 6 | 5 | -3.0
24	COc1ccc(CCN2C(=O)c3ccncc3C2=O)cc1OC
    1% | -42%[inhibitor] | 11% | 0.3% | 5 | 13 | 0.8
25	CC(NC(=O)C1CCN(S(=O)(=O)c2ccccc2)CC1)c1ccccc1 (stereo not given)
    -3% | 24% | 6% | 0.2%&-1.3% | -21 | 9 | -6.9
26	O=C(CNC(=O)c1ccc(Cl)c([N+](=O)[O-])c1)OC1CCCCC1=O (stereo not given)
    -18% | 7%[15.4 µM] | nt | 0.4% | -10 | 7 | nt
27	COc1ccc(Nc2ccc(C(=O)O)cc2[N+](=O)[O-])cc1
    ? | -76%[inhibitor] | 21% | 0.5% | -2 | 4 | 1.6
28	COc1ccc(C(=O)N(C)C2CCCN(Cc3ccccc3F)C2)cc1OC (stereo not given)
    -6% | -79%[inhibitor] | 8% | nt | 82* | 4 | -1.7
29	CC(C)c1ccc(NC(=O)C(c2ccc3c(c2)OCO3)N2CCN(C(=O)c3ccco3)CC2)cc1 (stereo not given)
    -3% | -16% | 1% | -3.8% | 0 | -7 | -1.0
30	COc1ccc(N2Nc3n[nH]c(N)c3N2)cc1
    8% | -38%[inhibitor] | 3% | 0.7% | 17 | -8 | -0.4
31	NCCCC[C@H]1NC(=O)[C@H](CCC(=O)O)NC(=O)c2cc([N+](=O)[O-])cc(I)c2OCC[C@@H](C(N)=O)NC1=O
    12% | nt | 5% | 1.2% | -4 | -17 | -3.0
32	O=c1cc(-c2ccncc2)oc2c1ccc1ccccc12
    -17% | -3%[15.4 µM] | 3% | -8.4% | -5 | -8 | 0.9
33	CCOC(=O)O[C@]1(C(=O)COC(=O)CC)CC[C@H]2[C@@H]3CCC4=CC(=O)C=C[C@]4(C)[C@H]3[C@@H](O)C[C@@]21C
    -2% | nt | nt | -1.6% | -6 | -2 | nt
34	COC(=O)c1cc(C(=O)c2cc(Cl)ccc2O)coc1=N
    -20% | -17%[15.4 µM] | 3% | 0.8% | 17 | 3 | 11
35	CC1(C)Cc2c(C#N)c(NCCc3ccccc3)nc(-c3ccco3)c2CO1
    -8% | ? | 50µM* | 28µM* | 4 | 15 | -0.4
36	Cc1cc(C)c(C#N)c(SCc2ccc(C#N)cc2)n1
    6%[15.4 µM] | 1% | -20% | -3.3% | ? | 1 | -0.5
37	O=C(O)c1cccc(NC(=O)C2CCCO2)c1 (stereo not given)
    2% | -15% | 4% | -3.8% | 1 | -1 | 3.1
38	CN=C1c2cc3c(Br)c(OC)ccc3n2CCN1C
    5% | 17% | 1% | -1.1% | -6 | -6 | 0.3
39	Cc1ccc2c(c1)N(CC(=O)OC(CC(C)C)C(=O)NC1CCCC1)C(=O)CO2 (stereo not given)
    -17% | 11% | -14% | -0.8% | 6 | 9 | 0.6
40	O=c1c2c(n3nnnc3n1-c1ccccc1)-c1ccccc1CC21CCCC1
    -10%[15.4 µM] | -9% | 7% | -9.9% | -9 | 8 | 2.9
41	CC(Oc1ccc(Cl)cc1Cl)C(=O)NCCCCc1ccccc1 (stereo not given)
    -4% | -22% | -10% | -0.5% | -21 | 3 | nt
42	O=C1CC(=C(c2ccccc2)c2ccccc2)C(=O)N1CCN1CCN(c2cccc(Cl)c2)CC1
    -10% | 11% | 11% | 25µM* | 4 | -23 | 3.2
43	Cc1onc(-c2c(F)cccc2Cl)c1C(=O)N1CCN(c2ncccn2)CC1
    -6% | -80%[inhibitor] | 8% | -25% | 2 | nt | -2.5
44	CCC(C)(C)NC(=O)C(c1ccccc1Cl)N(C(=O)CCC(=O)Nc1cc(C)on1)C(C)(C)C (stereo not given)
    -6% | -1%[15.4 µM] | 1% | -0.8% | 21 | 0 | -1.9
45	Cn1c(=O)oc2cc(C(=O)c3ccccc3)ccc21
    0% | 36% | 19% | ? | -4 | -3 | 4.6
46	Cc1onc(-c2ccccc2)c1C(=O)N/N=C/c1ccc(Br)cc1
    -13% | -57%[inhibitor] | -2% | 1.6% | 5 | -10 | nt
47	O=C(CCCl)N(Cc1nc2ccccc2c(=O)[nH]1)Cc1cccs1
    -3% | 1%[15.4 µM] | 11% | -1.6% | 2 | 10 | 1.5
48	CCCCC(=O)OCC(=O)Nc1cccc(S(=O)(=O)NC2=NCCCCC2)c1
    21% | -22%[15.4 µM] | 17% | nt | 3 | 2 | 0.3
49	CCOC(=O)c1c(C)[nH]c(C(=O)/C(C#N)=C/c2ccc(OCC)cc2)c1C
    -6% | -6% | -13% | ? | 0 | -2 | 17
50	COc1ccc(-c2nnc(NC(=O)c3cccs3)s2)c(OC)c1
    11% | ? | -3% | -13% | 4 | -1 | 1.1
51	Cn1c(SCC(=O)Nc2ccc3c(c2)OCCO3)nnc1-c1ccccn1
    11% | -3% | 6% | -0.6% | 2 | -7 | 43[activator]
52	CCCOc1ccccc1C1CC(=O)NC2=C1C(=O)CCC2 (stereo not given)
    19% | ? | 15% | 0.7% | -1 | 6 | 2.8
53	COc1ccc(S(=O)(=O)N2CCN(C(=O)c3ccc([N+](=O)[O-])o3)CC2)cc1
    -1% | 1%[15.4 µM] | 6% | nt | -4 | -16 | -0.2
54	COc1ccc(OC)c(C(=O)c2nc3c(n2O)CCCCC3)c1
    4% | -24% | 8% | -0.1% | -2 | 2 | -1.1
55	Cc1cc(Br)c(NC(=O)CCNC(=O)OCc2ccccc2)cc1C
    0% | -6% | 7% | 1.2% | -13 | -11 | -1.4
56	COC(=O)c1cccc(CN2C(=O)SC(Nc3ccc(C)cc3)C2=O)c1 (stereo not given)
    5% | 0% | -7% | -2.9%&-1.3% | 4 | -9 | -1.1
57	COC(=O)CSc1nnc(NC(=O)CCc2ccccc2)s1
    -4% | 29% | 12% | -2.6% | 1 | nt | 2.0
58	CCOc1ccc(-n2cnnn2)cc1S(=O)(=O)Nc1c(C)cccc1C
    -1% | 12% | 22% | -7.3% | 1 | 7 | 6.2
59	Cc1c(C(=O)NCc2ccccn2)sc2nc(-c3ccccc3)cn12
    -3% | 2% | -8% | -5.7% | -4 | 9 | 4.7
60	CC1CCCCC1NC(=O)c1ccc(CSc2nc3ccncc3[nH]2)cc1 (stereo not given)
    -11% | -78% | 26% | 1.0% | 19 | 2 | 2.9
61	CCCCOC(=O)c1cccnc1
    7% | -4% | 13% | -1.4% | ? | 2 | -2.1
